# From PubChem BioAssay
# Cruzain Triton – blocks cruzain activity in presence of Triton detergent. Potency, µM, for inactives: max response, negative = inhibition, most hits filed as inhibitors. actives 0.43% (n = 200,000). purified cruzain, Z-FR-AMC fluorescence, 0.01% Triton. P25779; active means well fitted curve in the direction sought with a large enough effect; inconclusive means small, poorly fitted or top-dose-only effect, or another doubt; inactive means no such curve, though single readings can be large; an effect the other way counts as inactive or inconclusive;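 further: plate controls were neutral wells for no effect and buffer without enzyme for full effect; nearly all actives have a fitted effect of over 40% in size; top concentration of the series not given in the record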
# Target sequence (P25779 123-467 limits assumed): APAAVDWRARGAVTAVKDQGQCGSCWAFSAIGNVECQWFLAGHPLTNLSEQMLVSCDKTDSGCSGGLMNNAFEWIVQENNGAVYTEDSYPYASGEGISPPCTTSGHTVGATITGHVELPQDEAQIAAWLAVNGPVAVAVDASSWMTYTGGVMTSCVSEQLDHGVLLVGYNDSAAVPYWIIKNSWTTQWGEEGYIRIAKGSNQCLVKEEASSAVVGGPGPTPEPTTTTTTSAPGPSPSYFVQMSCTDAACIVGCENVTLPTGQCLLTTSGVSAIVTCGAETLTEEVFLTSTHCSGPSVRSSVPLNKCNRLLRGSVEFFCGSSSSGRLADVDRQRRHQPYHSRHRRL
#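 Cruzain (1.5 nM) preincubated 15 min at RT with compound in 100 mM sodium acetate pH 5.5, 5 mM DTT, 0.01% Triton X-100. Reaction started with 2 uM Z-FR-AMC; AMC fluorescence (ex 360/em 450 nm) change over 60 s gave rate.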
# NS1 function inh – influenza NS1 inhibition | S. cerevisiae slowed by influenza A NS1, growth recovery by OD600 | Potency, µM (highest dose often 46.1 µM), inactives show at the highest dose activity, positive = more growth | actives 0.4% (n = 270,000) | AID 2326; further: actives are rising curves; nearly all actives have a fitted effect of over 50% in size
#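 A cell-based growth assay was used: compounds that relieve NS1-induced slow growth of budding yeast raise OD600. Assay medium was yeast nitrogen base with ammonium sulphate and -URA supplement, pH 6.0, with 2% galactose.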
# SARS PLpro yeast – blocks SARS-CoV papain-like protease in a yeast assay. S. cerevisiae expressing SARS-CoV PLpro, growth rescue; control for the full effect not named in the record. Potency, µM (doses to about 32.9 µM), without a hit: top-dose activity, positive = growth rescue. actives 0.19% (n = 330,000). AID 485353; further: 0% is about no effect; nearly all actives have a fitted effect of over 55% in size; growth read by luminescence after 48 h
# MARV entry inh – Marburg virus entry inhibition; Potency, µM (titrated, usually from 37.8 µM), without a hit: at the highest dose activity change, negative = inhibition, hits mostly inhibitors; actives 1.8% (n = 300,000); Marburg virus pseudotyped entry inhibition, cell reporter; control for the full effect not named in the record; about a third of the inactives were read at about 46 µM; AID 540276; active = well fitted inhibition curve with a large enough effect; inconclusive = small, poorly fitted or top-dose-only effect, or effect the other way; inactive = flat fitted curve, though single readings scatter; tested in HEK293 cells; about a fifth of its hits are not listed in these tables; further: on the % scale 0 is the no-effect control and ±100 the full control effect; luciferase read-out
# Cruzain noTriton – inhibitors of Trypanosoma cruzi cruzain without detergent. P25779. AID 1476. purified cruzain, Z-FR-AMC fluorescence, no detergent. actives 2.3% (n = 200,000). Potency, µM, inactives show max response, negative = inhibition, hits mostly inhibitors; active means well fitted curve in the direction sought with a large enough effect; inconclusive means small, poorly fitted or top-dose-only effect, or another doubt; inactive means no such curve, though single readings can be large; an effect the other way counts as inactive or inconclusive;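 further: plate controls were enzyme without inhibitor for no effect and buffer without enzyme for full effect; nearly all actives have a fitted effect of over 40% in size; top concentration of the series not given in the record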
#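 Detergent-free condition (0.00005% Triton X-100) in acetate buffer pH 5.5 with DTT. 1.5 nM enzyme and compound were pre-mixed 15 min, then 2 uM Z-FR-AMC substrate added; reaction progress from fluorescence change between first and third reads (60 s).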
# RE007 growth inh – less growth of the S. pombe RE007 Vpr strain; S. pombe RE007 Vpr strain, BacTiter-Glo ATP luminescence, 24 h; control for the full effect not named in the record; Potency, µM (top dose mostly 92.2 µM), inactives show top-dose activity change, negative = less growth; actives 0.21% (n = 360,000); AID 651644; active = well fitted falling curve with a large enough effect; inconclusive = small, poorly fitted or top-dose-only effect; inactive = no such curve, though single readings can be large or run the other way;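 further: on the % scale 0 is the no-effect control and ±100 the full control effect; nearly all actives have a fitted effect of over 50% in size; the assay follows cell death caused by Vpr and the record does not say whether a fall means rescue or toxicity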
#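 Fission yeast RE007 carrying one integrated HIV-1 vpr copy, seeded at OD 0.01 in PMG+AL medium with 23 nL pinned compound. Grown 24 h at 30 degrees; viability read by BacTiter-Glo luminescence after 5 min.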
# 2A StopGo – FMDV 2A StopGo reporter, luciferase signal | human cells with a luciferase reporter of 2A StopGo recoding; control for the full effect not named in the record | Potency, µM (titrated, usually from 57.9 µM), inactives show at the top dose signal change, negative = less light | actives 1.2% (n = 410,000) | AID 1159524; active = well fitted falling curve with a large enough effect; inconclusive = small, poorly fitted or top-dose-only effect; inactive = no such curve, though single readings can be large or run the other way; tested in HEK293T cells; further: on the % scale 0 is the no-effect control and ±100 the full control effect; nearly all actives have a fitted effect of over 45% in size; luciferase light after 4 h
# LASV entry inh – Lassa virus entry inhibition | Lassa virus pseudotype entry inhibition, cell reporter; control for the full effect not named in the record | Potency, µM (titrated, usually from 37.9 µM), for inactives: at the highest dose activity change, negative = inhibition, usual class: inhibitors | actives 1.2% (n = 300,000) | AID 540256; active means well fitted inhibition curve with a large enough effect; inconclusive means small, poorly fitted or top-dose-only effect, or effect the other way; inactive means flat fitted curve, though single readings scatter; tested in HEK293 cells; further: on the % scale 0 is the no-effect control and ±100 the full control effect; nearly all actives have a fitted effect of over 50% in size; luciferase read-out
# Starred values were filed as active, the others as inactive; ? = inconclusive; · = not tested or not shown; & = joins results of further samples; [ ] = another dose, or the depositor's remark. Unless noted, the call rests on the fitted dose curve; in most records, active means well fitted rising curve with a large enough effect; inconclusive means small, poorly fitted or top-dose-only effect; inactive means no such curve, though single readings can be large or run the other way. Potency means the concentration at half of the fitted maximal effect.
SMILES,Cruzain Triton,NS1 function inh,SARS PLpro yeast,MARV entry inh,Cruzain noTriton,RE007 growth inh,2A StopGo,LASV entry inh
CC1CCCCC1N=C1NC(C)(C)CS1 (stereo not drawn),·,·,2%,?,·,1%,-24%,?
O=C(NC1CCCCC1)c1cc(-c2ccc(O)cc2)on1,·,3%,-2%,6%[46.1 µM],·,-8%,37%[activator],-20%[46.1 µM]
CSc1ncccc1C(=O)N1CCCC(CCC(=O)NCc2ccc(F)c(F)c2)C1 (stereo not drawn),·,-1%,0%,-22%[46.1 µM],·,-1%,1%,10%
O=C(CNc1ccc(Cl)cc1)NNC(=S)NCc1ccccc1,·,5%,0%,?,·,12%,-5%,?
Cc1nn2c(-c3cccc(NC(=O)c4ccco4)c3)nnc2c2ccccc12,-2.1%,-43%,-11%,-2%&-2%,?,7%,-1%,-8%
CCOC(=O)c1ccc2[nH]c(C)c(C)c2c1,·,·,·,27%,·,-19%,15%,2%
COc1cc(NC(=O)c2cccnc2)c(OC)cc1NC(=O)c1ccc(Br)cc1,·,3%,3%,?,·,5%,-2%,-18%[46.1 µM]
CCOc1ccc(CCNC(=O)c2ccc(=O)[nH]c2)cc1OCC,·,7%,0%,·,·,-11%,-21%,·
CCc1ccc(C(=O)NNC(=O)CN2C(=O)NC(CC)(c3ccccc3)C2=O)cc1 (stereo not drawn),·,·,1%,5%[46.1 µM],·,-14%,-16%,2%
COc1ccc(CCNC(=O)Cn2nnc(-c3cccc(C(F)(F)F)c3)n2)cc1OC,-0.8%,·,·,3%[46.1 µM],1%,·,-18%,-5%[46.1 µM]
O=C(CCSc1ccccc1)OCn1nnc2ccccc2c1=O,·,-9%,-4%,-3%[46.1 µM],·,-22%,19%,2%
CC(C)NS(=O)(=O)c1ccc(NCCCn2ccnc2)c([N+](=O)[O-])c1,·,4%,-2%,-1%[46.1 µM],·,2%,-15%,·
CCc1cccc(NC(=O)CSc2nnc(Cc3ccc(OC)cc3)c(=O)[nH]2)c1,·,·,-4%,12%,·,16%,7%,-4%
COC(=O)C1=C(C)N(C(C)c2ccccc2)C(=O)C1 (stereo not drawn),0.8%,11%,10%,-29%,-9%,9%,-19%,-6%
Cc1ccc(NCc2nnc(SCC(=O)N3c4ccccc4Sc4ccccc43)o2)c(C)c1,-2.7%,26%,1%,4%,?,·,0%,-6%
CCCc1cc(=O)[nH]c(SCC(=O)c2c[nH]c3ccccc23)n1,·,6%,0%,14%[46.1 µM],·,5%,-5%,-19%
CCOc1ccc(C(=O)NCC2(c3ccccc3)CCOCC2)cc1,·,2%,-2%,·,·,-17%,7%,·
CC(C)N(C(=O)Cn1cc(S(=O)(=O)Cc2ccc(C(F)(F)F)cc2)c2ccccc21)C(C)C,-5.0%,·,·,·,11%,·,9%,?
CCOc1ccccc1N1C(=O)CC(=O)NC1=O,·,7%,-1%,·,·,3%,-21%,·
Cc1ccc2[nH]c3c(NCc4ccccc4)ncnc3c2c1,·,-2%,-3%,·,·,1%,?,·
CC(NC(=O)C1CCC(C)(C(=O)O)C1(C)C)c1ccccc1 (stereo not drawn),·,-6%,16%,7%,·,99%,8%,4%
CN1CCN(S(=O)(=O)c2ccc(CNC(=O)c3ccccc3)s2)CC1,·,-3%,0%,-5%[46.1 µM],·,13%,-11%,?
NS(=O)(=O)c1ccc(NC(=O)CN2CCc3ccccc32)cc1,·,2%,3%,-5%[14.2 µM],·,3%,5%,?
CCN1C(=O)C2(C(C#N)=C(N)Oc3n[nH]c(-c4ccc(Cl)cc4)c32)c2ccccc21 (stereo not drawn),-7.5%,23%,5%,?,-1%,-2%,?,-4%
COc1cc(NC(=O)CC(C)n2nc(C)cc2C)cc(OC)c1 (stereo not drawn),-2.6%,·,·,·,10%,·,-16%,-10%[46.1 µM]
Cc1cccc(CN2CCN(CC(=O)Nc3c(C)cccc3C)S2(=O)=O)c1,-1.3%,·,·,·,4%,·,-14%,5%[46.1 µM]
CCOC(=O)C1=C(N)OC2=C(C(=O)CCC2)C1c1ccc(C)s1 (stereo not drawn),3.9%,-7%,-10%,29%,-1%,-1%,·,29%
CCOc1cc(/C=N/NC(=O)C2CC2)ccc1OC(C)C,·,4%,11%,2%[46.1 µM],·,-20%,17%,1%[46.1 µM]
CCOc1cc(C(=S)N2CCOCC2)ccc1OS(=O)(=O)c1ccc(Br)cc1,·,2%,-1%,?,·,0%,-26%,-30%[46.1 µM]
c1ccc(-c2nc(NCc3ccco3)c3ccccc3n2)cc1,-14%,-20%[9.22 µM],-66%,-15%,-17%,-10%,-11%,1%
O=C(CN1C(=O)c2ccccc2S1(=O)=O)NCc1ccc2c(c1)OCO2,0.6%,8%,3%,-1%,-10%,-3%,·,0%
O=C1c2ccccc2C(=O)N1CSc1ncccn1,0.4%,-1%,-1%,-2%,-2%,3%,19%,13%
COc1ccccc1NC(=O)N1CCCC1C(=O)NC12CC3CC(CC(C3)C1)C2 (stereo not drawn),2.7%,1%,11%,-5%,-7%,4%,7%,?
CC[N+](C)(C)CC/C=C1/c2ccccc2Sc2ccc(Cl)cc21,·,-4%,0%,-20%[14.2 µM],·,3%,-8%,8%
NS(=O)(=O)c1cccc(NC(=O)C(Cc2ccccc2)NC(=O)c2ccccc2)c1 (stereo not drawn),·,-5%,1%,2%[46.1 µM],·,2%,87%[activator],-5%
CC(C)S(=O)(=O)c1csc(C(=O)NN)c1-n1cccc1,·,8%,0%,-9%,·,3%,-18%,?
O=C(O)C1CCCCN1S(=O)(=O)c1ccc2ccccc2c1 (stereo not drawn),-1.6%,2%,9%,3%,-4%,7%[3.69 µM],-9%,-14%
CC(C)(CNC(=O)c1ccc(NS(=O)(=O)c2ccc(Br)cc2)cc1)N1CCOCC1,·,·,-4%,11%,·,-18%,-14%,-1%
CC1=Nc2ccccc2/C1=C\c1sc(Nc2ccc(C)cc2)nc1O,-17%,2%,-26%,?,?,-16%,0%,?
COc1cccc(OC)c1OCCCCCc1c(C)n[nH]c1C,-1.2%,-35%,5%,?,2%,11%,-20%,?
COc1ccc(CNC(=O)CNC(C)c2ccc(F)cc2)cc1 (stereo not drawn),·,5%,-1%,·,·,-5%,-17%,·
CC1CCCN(c2ccc(C(=O)NCc3ccccc3)cn2)C1 (stereo not drawn),·,·,-4%,?,·,2%,49%[activator],-8%[46.1 µM]
O=C(CSC1CN(C(c2ccccc2)c2ccccc2)C1)N/N=C/c1ccccc1,·,-11%,0%,?,·,-5%,-15%,0%
c1ccc(OCCN2CCN(C(c3ccccc3)c3ccccc3)CC2)cc1,·,13%,7%,·,·,17%,?,·
Cc1ccc(/C=N/NC(=O)CSCc2ccc(Cl)cc2)cc1,-12%,-16%,-8%,?,-1%,15%,-2%,?
Cc1c(C(=O)OCC(=O)N2CCN(c3ccccc3)CC2)oc2ccccc12,·,·,1%,5%[46.1 µM],·,-6%,-1%,-17%[46.1 µM]
Cc1ccc(CNC(=O)c2cccc(OCc3c(C)noc3C)c2)cc1,-1.6%,-14%,-2%,-6%,-5%,20%,-27%,-26%
CCN1C(=O)C(C(=O)Nc2ccc(OC)cc2)C2CC1(C)Oc1ccccc12 (stereo not drawn),-12%,-39%,-4%,-13%,10%,-17%,-21%,16%
CCOC(=O)C1(c2ccccc2)CCN(CCC(=O)Nc2ccccc2OC)CC1,·,0%,1%,·,·,-15%,-19%,·
CCOC(=O)CN1CC23C=CC(O2)C(C(=O)Nc2cc(OC)ccc2OC)C3C1=O (stereo not drawn),-0.2%,8%,12%,0%,-1%,-2%,-11%,·

# (list continues)
SMILES,Cruzain Triton,NS1 function inh,SARS PLpro yeast,MARV entry inh,Cruzain noTriton,RE007 growth inh,2A StopGo,LASV entry inh
COc1ccc(N2CC(C(=O)N3CCN(c4ccccc4OC)CC3)CC2=O)cc1 (stereo not drawn),·,0%,0%,1%[46.1 µM],·,-12%,21%,?
Cc1cc(C)cc(NC(=O)N2CCN(Cc3ccc4c(c3)OCO4)CC2)c1,·,0%,0%,·,·,6%,-5%,·
CC1CCN(c2ccccc2NC(=S)NC(=O)c2cccs2)CC1,-5.9%,9%,13%,?,-22%,4%,?,-18%
O=C(O)c1ccc2oc(=O)n(Cc3ccccc3)c2c1,0.1%,·,·,·,0%,·,-10%,1%[46.1 µM]
COc1ccc(NC(=O)c2nn(C)c3c2CSc2ccc(C)cc2-3)cc1OC,-8.1%,·,·,·,?,·,?,-28%[46.1 µM]
CCNS(=O)(=O)c1ccc(OC)c(C)c1,3.5%,9%,0%,11%,4%,6%,·,1%
CCc1nc(SCC(=O)c2ccc3c(c2)OCCO3)c2ccccc2n1,-14%,-3%,-12%,17%,7%,-4%,?,?
Cc1cc(C)c(NC(=O)c2cc(C)nc3c2c(C)nn3-c2cccc(F)c2)c(C)c1,-0.4%,·,·,·,5%,·,-12%,?
Cn1nnnc1SCCCNCc1cccc(OCc2ccccc2F)c1,-1.4%,·,·,?,-4%,·,15%,24%[46.1 µM]
Cc1ccc([N+](=O)[O-])cc1S(=O)(=O)Nc1ccc(-c2ccc(N3CCOCC3)nn2)cc1,·,·,3%,26%,·,0%,48%[activator],7%
Cc1ccc2occ(C3N[C@H](C(=O)O)CS3)c(=O)c2c1 (stereo partly drawn),8.0%,-36%,-7%,-4%,-5%,-5%,44%[activator],3%
CCN(Cc1ccncc1)C(=O)c1ccc(C)o1,·,6%,-4%,·,·,-11%,61%[activator],·
COc1ccc(C)cc1NC(=S)N1CC(C)OC(C)C1 (stereo not drawn),·,1%,?,·,·,4%,-8%,·
CCOC(=O)c1sc(-n2[nH]c(C)cc2=O)nc1C,?,?,1%,-17%,12%,-6%,0%,-7%
Cc1cc(C)cc(NC(=O)Nc2ccc(Cl)cn2)c1,·,-3%,0%,·,·,-1%,-10%,·
CN(C)c1nc(OCCNC(=O)Nc2ccccc2)nc(N(C)C)n1,1.2%,-8%,1%,-23%,2%,41%,-6%,-4%
COc1ccc(C2=NN(C(C)=O)C(c3ccccc3)C2)cc1 (stereo not drawn),·,-13%,-5%,?,·,10%,52%[activator],-20%
